LAP4 TOR yeast: modulators of LAP4-GFP expression in yeast, primary screen, S. cerevisiae, multiplex flow cytometry, MLPCN library; 3 h; median GFP as percent of DMSO wells; GFP response vs DMSO, % at 10 µM; 320,000 tested, 0.34% active; AID 2023, 2009;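 active = GFP response vs DMSO above a set limit, about the screen mean plus 3 SD, cut at about 150% in these data; inconclusive = under 70 cell events counted for the yeast strain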
JMJD2C inh: inhibitors of GASC-1 histone demethylase, primary screen, biochemical, fluorescence, DELFIA europium. Lysine-specific demethylase 4C (Homo sapiens), Q9H3R0. GST-JMJD2C(1-420) H3K9me3 demethylation. inhibition, % at 2.35 µM. 330,000 tested, 0.069% active;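 active = more than half of a compound's replicate wells show inhibition beyond 50%, single wells judged on their own value; inconclusive = some, but no more than half, of replicates pass 50% inhibition; inactive = no replicate passes 50% inhibition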;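 also: signal counts dimethyl H3K9 product captured on neutravidin plate; 0% = median of DMSO wells and 100% = 0.3 times that DMSO median; strong numbers were not always called active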
Target sequence (Q9H3R0 1-420 limits assumed): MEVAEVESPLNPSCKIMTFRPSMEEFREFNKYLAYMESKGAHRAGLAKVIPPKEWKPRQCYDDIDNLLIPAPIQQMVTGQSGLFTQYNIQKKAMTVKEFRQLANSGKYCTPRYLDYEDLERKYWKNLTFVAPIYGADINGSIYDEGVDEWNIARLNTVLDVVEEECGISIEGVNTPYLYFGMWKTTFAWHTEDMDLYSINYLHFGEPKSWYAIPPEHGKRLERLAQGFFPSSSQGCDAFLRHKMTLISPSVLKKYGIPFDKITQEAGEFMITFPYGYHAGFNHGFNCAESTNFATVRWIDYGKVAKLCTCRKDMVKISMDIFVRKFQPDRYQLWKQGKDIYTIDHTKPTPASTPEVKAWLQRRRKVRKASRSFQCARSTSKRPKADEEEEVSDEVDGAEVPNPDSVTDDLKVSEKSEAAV
MEP2 TOR yeast: modulators of MEP2-GFP levels in yeast, primary screen, S. cerevisiae, multiplex flow cytometry, MLPCN library | S. cerevisiae MEP2-GFP strain, 3 h; 100% = DMSO control level | 330,000 tested, 0.51% active | GFP response vs DMSO, % at 10 µM;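 active = GFP response versus DMSO above a set limit, roughly screen mean plus 3 SD, cut at about 180% in these data; inconclusive = fewer than 70 cells counted for a yeast strain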;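 also: median GFP fluorescence of the barcode-gated MEP2-GFP cells per well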
RPL19A-GFP yeast: RPL19A-GFP expression modulators in yeast, primary screen, cell-based, S. cerevisiae, multiplex flow cytometry, MLPCN; S. cerevisiae RPL19A-GFP strain, 3 h; hits give low values; percent response vs DMSO, % at 10 µM; 330,000 tested, 0.3% active;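 active = percent response vs DMSO below 50%; inconclusive = fewer than 70 events counted for the yeast strain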;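 also: median channel GFP fluorescence of the barcoded RPL19A-GFP strain; ratio of sample median GFP to plate DMSO average so 100% = DMSO; lower means less RPL19A-GFP as with rapamycin TOR inhibition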
CR mimetic SO: reduction of superoxide in aged yeast, primary screen, HTS | S. cerevisiae aged cells, superoxide DHE fluorescence; hits give low values | superoxide response (% of plate mean), % at 10 µM | 330,000 tested, 0.18% active | AID 2690, 2010;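 active = superoxide response under a set limit, about three screen SD below normal, cut at about 65% in these data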;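 also: yeast aged for seven days with compound at 30 °C before DHE staining; 100% = average MFI of all compound-treated wells on the plate with controls excluded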
proCasp7 act: procaspase-7 activators, primary screen, counter-screen for procaspase-3 activator project, biochemical, absorbance, HTS, human; AID 463210, 2010; 330,000 tested, 0.093% active; recombinant procaspase-7, Ac-DEVD-pNA absorbance 405 nm; D23A/D198A/D206A triple mutant, cannot self-cleave; scale: DMSO 0, 5 µM enzyme 100; Caspase-7 (Homo sapiens), P55210; activation, % at 8.5 µM;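 active = percent activation above the screen-wide mean plus 3 SD, cut at about 25% in these data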
Target sequence (P55210 whole entry D23A/D198A/D206A): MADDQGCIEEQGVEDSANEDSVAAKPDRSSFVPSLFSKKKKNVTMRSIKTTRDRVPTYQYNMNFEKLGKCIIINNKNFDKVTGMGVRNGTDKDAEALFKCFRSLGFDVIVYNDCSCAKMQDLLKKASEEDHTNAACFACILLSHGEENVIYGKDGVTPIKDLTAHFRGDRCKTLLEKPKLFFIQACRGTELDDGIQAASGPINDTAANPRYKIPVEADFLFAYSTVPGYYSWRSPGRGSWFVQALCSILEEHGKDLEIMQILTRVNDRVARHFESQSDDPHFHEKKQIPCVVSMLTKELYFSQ
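buffer or medium = Zinc-free HEPES/NaCl buffer, pH 7.4 | material = Procaspase-7 triple mutant (PC-7 D3A) | input = 2 µM procaspase-7 mutant as dispensed | signal = Epi-absorbance of released pNA at 405 nm, two timepoints | timing = 1 h preincubation, 2 h reaction | replicates = singlicate compound testing | evaluation = % activation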
proCasp3 act: activators of human procaspase-3 D3A mutant, primary screen, biochemical, absorbance, PC-3 D3A mutant, single concentration | Caspase-3 (Homo sapiens), P42574 | recombinant procaspase-3 D3A, Ac-DEVD-pNA absorbance 405 nm | activation, % at 8.5 µM | 330,000 tested, 0.11% active | AID 463141, 2010;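 active = activation above the mean of all tested compounds plus 3 SD, cut at about 21% in these data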;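 also: 0% = DMSO alone and 100% = DMSO wells spiked with extra 5 µM PC-3 D3A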
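Technique: 405 nm absorbance of p-nitroaniline, reads at 0 and 120 min; Test system: Procaspase-3 D3A mutant; Incubation: 1 h enzyme-compound preincubation, then 2 h substrate reaction, 25 °C; Repeats: singlicate, each compound tested once; Benchmarks: low control DMSO wells, high control DMSO plus 5 µM PC-3 D3A.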
* = called active by the depositor; u = inconclusive; x = not tested or not shown; & = joins results of further samples; ! = not confirmed by another sample; [ ] = dose if it differs, or a comment. These rows are one share of the data, so the mix of outcomes need not match the whole.

#	canonical_smiles	proCasp3 act	RPL19A-GFP yeast	CR mimetic SO	JMJD2C inh	LAP4 TOR yeast	MEP2 TOR yeast	proCasp7 act
1	Cc1c(N)c(=O)n(-c2ccccc2)n1C	1	96	107	x	97	95	-5
2	Cc1nn2c(NCCOCCO)c3c(nc2c1-c1ccccc1)CCC3	-3	96	93	-5	105	94	5
3	c1ccc2c(c1)Oc1ccccc1S2	4	100	95	-2	101	98	-3
4	COc1cc(/C=C/C(=O)/C=C(O)/C=C/c2ccc(O)c(OC)c2)ccc1O	-31	100	95	-4	139	110	-23
5	CNC(=O)c1c(I)c(C(=O)NCC(=O)Nc2c(I)c(C(=O)O)c(I)c(C(=O)NCCO)c2I)c(I)c(N(C)C(C)=O)c1I	3	96	96	x	115	98	-5
6	C[n+]1ccccc1/C=N/O	1&-4	102&95	91&107	42&8	96&96	96&92	7&-14
7	NC(N)=Nc1nc(CSCC/C(N)=N/S(N)(=O)=O)cs1	2	103	98	15	103	98	2
8	CCOC(=O)Nc1ccc2c(c1)N(C(=O)CN(C)C)c1ccccc1CC2	4	104	104	-11	107	94	-5
9	CCCc1nn(C)c2c(=O)[nH]c(-c3cc(S(=O)(=O)N4CCN(C)CC4)ccc3OCC)nc12	4	90	93	12	102	95	5
10	Cc1cc(/C=C\c2ccc3cc(N(C)C)ccc3[n+]2C)c(C)n1-c1ccccc1	10	103	159	x	126	118	-12
11	CN(C)CCN(Cc1cccs1)c1ccccn1	8	92	103	u	116	88	4
12	CNC[C@H](O)c1cccc(O)c1	4	106	100	14	93	97	7
13	NCCCC(N)(C(=O)O)C(F)F (stereo not given)	4	100	101	-5	95	99	3
14	CN(C(=O)CN(CCO)CC(=O)N(C)C(C)(C)Cc1ccccc1)C(C)(C)Cc1ccccc1	-6	98	95	x	111	94	-6
15	Cn1nnnc1SCC1=C(C(=O)O)N2C(=O)[C@@H](NC(=O)[C@H](O)c3ccccc3)[C@H]2SC1	-5	95	105	22	102	93	-7
16	CC(=O)OCC(=O)[C@@]1(O)CC[C@H]2[C@@H]3CCC4=CC(=O)C=C[C@]4(C)[C@H]3[C@@H](O)C[C@@]21C	5	103	102	0	105	95	1
17	O=C(NCC1CCCCN1)c1cc(OCC(F)(F)F)ccc1OCC(F)(F)F (stereo not given)	5	92	104	-1	116	86	8
18	NCCc1cnc[nH]1	6&9	106&96	107&97	-9&1	112&102	99&90	17&6
19	CNNCc1ccc(C(=O)NC(C)C)cc1	9	102	110	-17	102	97	-1
20	CC(=O)CC(c1ccccc1)c1c(O)c2ccccc2oc1=O (stereo not given)	13&5&4	40*![may fluoresce violet]	103&96&101	-11&-4&5	99&112&105[may fluoresce violet]	212*![may fluoresce violet]	0&10&13
21	C#C[C@]1(O)CCC2C3CCC4=CC(=O)CC[C@@H]4C3CC[C@@]21C (stereo not given in full)	8	100	99	-4	108	90	18
22	Nc1ccn([C@H]2CC[C@@H](CO)O2)c(=O)n1	-2	110	102	-43	101	97	-12
23	CCN(CC)CC#CCOC(=O)C(O)(c1ccccc1)C1CCCCC1 (stereo not given)	5	96	95	11	120	97	3
24	O=C(c1ccc(OCCN2CCCCC2)cc1)c1c(-c2ccc(O)cc2)sc2cc(O)ccc12	-6&4	99&98	102&102	12	110&108	97&97	-1&12
25	CC(=O)c1nccs1	7	96	93	13	98	98	-2
26	Oc1ccccc1O	-10	102	97	x	96	96	-20
27	c1ccc2[nH]c(-c3cscn3)nc2c1	15	108	94	2	102	103	14
28	C[C@]12CCC(=O)C[C@@H]1CC[C@@H]1[C@@H]2CC[C@]2(C)C=CC[C@@H]12	4	109	108	-5	105	101	4
29	O=C1OC(c2ccc(O)cc2)(c2ccc(O)cc2)c2ccccc21	3	95	98	12&-12	103	92	6
30	COc1ccccc1N1CCN(CCN(C(=O)C2CCCCC2)c2ccccn2)CC1	1	102	98	25	108	97	3

Grouped by structure, the compounds so far containing two or more sulfur atoms
#	canonical_smiles	proCasp3 act	RPL19A-GFP yeast	CR mimetic SO	JMJD2C inh	LAP4 TOR yeast	MEP2 TOR yeast	proCasp7 act
7	NC(N)=Nc1nc(CSCC/C(N)=N/S(N)(=O)=O)cs1	2	103	98	15	103	98	2
15	Cn1nnnc1SCC1=C(C(=O)O)N2C(=O)[C@@H](NC(=O)[C@H](O)c3ccccc3)[C@H]2SC1	-5	95	105	22	102	93	-7

Retrieved one by one from the list above (2):
#	canonical_smiles	proCasp3 act	RPL19A-GFP yeast	CR mimetic SO	JMJD2C inh	LAP4 TOR yeast	MEP2 TOR yeast	proCasp7 act
11	CN(C)CCN(Cc1cccs1)c1ccccn1	8	92	103	u	116	88	4
14	CN(C(=O)CN(CCO)CC(=O)N(C)C(C)(C)Cc1ccccc1)C(C)(C)Cc1ccccc1	-6	98	95	x	111	94	-6

Next records:
#	canonical_smiles	proCasp3 act	RPL19A-GFP yeast	CR mimetic SO	JMJD2C inh	LAP4 TOR yeast	MEP2 TOR yeast	proCasp7 act
31	Nc1ccc(S(N)(=O)=O)cc1	6	101	97	3	106	100	-1
32	C#C[C@]1(O)CC[C@H]2[C@@H]3CCC4=C(CCC(=O)C4)[C@H]3CC[C@@]21C	-8	101	111	-9	117	94	-11
33	COC(=O)Cc1c[nH]c2cccc(OCC(O)CN(Cc3ccccc3)C(C)C)c12 (stereo not given)	5	100	110	-6	105	105	4
34	Cc1cccc(C)c1NC(=O)C(C)N (stereo not given)	-9	101	114	13	102	99	-8

Exported with two lines to a compound: part of the list above.
The line under a structure holds: proCasp3 act	RPL19A-GFP yeast	CR mimetic SO	JMJD2C inh	LAP4 TOR yeast	MEP2 TOR yeast	proCasp7 act
(20) CC(=O)CC(c1ccccc1)c1c(O)c2ccccc2oc1=O (stereo not given)
    13&5&4	40*![may fluoresce violet]	103&96&101	-11&-4&5	99&112&105[may fluoresce violet]	212*![may fluoresce violet]	0&10&13
(21) C#C[C@]1(O)CCC2C3CCC4=CC(=O)CC[C@@H]4C3CC[C@@]21C (stereo not given in full)
    8	100	99	-4	108	90	18

Sorted by length of the SMILES (low to high): part of the list above.
#	canonical_smiles	proCasp3 act	RPL19A-GFP yeast	CR mimetic SO	JMJD2C inh	LAP4 TOR yeast	MEP2 TOR yeast	proCasp7 act
34	Cc1cccc(C)c1NC(=O)C(C)N (stereo not given)	-9	101	114	13	102	99	-8
33	COC(=O)Cc1c[nH]c2cccc(OCC(O)CN(Cc3ccccc3)C(C)C)c12 (stereo not given)	5	100	110	-6	105	105	4
32	C#C[C@]1(O)CC[C@H]2[C@@H]3CCC4=C(CCC(=O)C4)[C@H]3CC[C@@]21C	-8	101	111	-9	117	94	-11
